KCNQ2 enhance: potentiators of rat KCNQ2 potassium channel; O88943; CHO-K1 KCNQ2, FluxOR thallium flux fluorescence; stronger effect = higher value; B-score at 10 µM; actives 0.54% (n = 310,000); AID 2239;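 active means fluorescence ratio B-score at least 3 SD of library B-scores, with initial fluorescence B-score within 3 SD, cut at about 5.3 in these data; same plate scores as AID 2156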;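 further: B-score of peak minus minimum over baseline fluorescence ratio after K+ and Tl+ stimulus; positive B-score means potentiation of KCNQ2 with more thallium influx and brighter signal; only the inactives scoring about 0 or higher are listed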
Target sequence (O88943 whole entry, looked up): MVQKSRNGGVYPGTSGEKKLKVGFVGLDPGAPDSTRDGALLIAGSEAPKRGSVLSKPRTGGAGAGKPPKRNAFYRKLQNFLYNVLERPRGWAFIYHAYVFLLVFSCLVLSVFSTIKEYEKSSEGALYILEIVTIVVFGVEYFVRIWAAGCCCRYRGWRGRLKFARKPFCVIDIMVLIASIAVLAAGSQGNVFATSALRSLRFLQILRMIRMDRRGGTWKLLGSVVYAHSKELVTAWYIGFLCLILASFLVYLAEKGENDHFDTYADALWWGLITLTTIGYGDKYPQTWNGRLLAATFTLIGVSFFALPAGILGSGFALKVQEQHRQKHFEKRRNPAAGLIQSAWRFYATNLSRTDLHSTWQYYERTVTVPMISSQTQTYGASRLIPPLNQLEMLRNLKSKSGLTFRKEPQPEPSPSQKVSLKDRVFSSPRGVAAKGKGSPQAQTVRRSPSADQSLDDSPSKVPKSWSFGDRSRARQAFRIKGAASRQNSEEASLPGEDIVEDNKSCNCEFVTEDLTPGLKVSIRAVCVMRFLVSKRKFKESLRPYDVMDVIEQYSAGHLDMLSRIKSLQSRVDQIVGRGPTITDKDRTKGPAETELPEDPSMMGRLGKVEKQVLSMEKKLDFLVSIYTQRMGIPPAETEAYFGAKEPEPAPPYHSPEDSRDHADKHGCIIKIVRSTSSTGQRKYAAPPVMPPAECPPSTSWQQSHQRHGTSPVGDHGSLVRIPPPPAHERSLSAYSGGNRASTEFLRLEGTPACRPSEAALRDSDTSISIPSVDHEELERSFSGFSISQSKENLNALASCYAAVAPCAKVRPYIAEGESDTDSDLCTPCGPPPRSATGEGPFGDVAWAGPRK
KCNQ2 enhance baseline: further read-out of KCNQ2 enhance, marked with its call; B-score; compound at 10 µM; measured here: initial fluorescence intensity artifact check;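 brightness before thallium and not channel activity; 0 = typical well and far values either way flag optical interference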
An asterisk follows results filed as active. These rows are one share of the data (hit frequency here may not be typical).

Start of the listing, in advance, 2 compounds:
SMILES | KCNQ2 enhance baseline | KCNQ2 enhance
COc1ccccc1CN1C(=O)[C@@H]2C(CCC(N)=O)NC3(C(=O)Nc4c3ccc(Cl)c4C)[C@@H]2C1=O (stereo partly specified) | -0.25 | 1.09
CCn1c(=O)c2c(nc(SCC(=O)N3CCCC(C)C3)n2C)n(C)c1=O (stereo unspecified) | -0.11 | 0.6

The listing, from the start:
SMILES | KCNQ2 enhance baseline | KCNQ2 enhance
COc1ccccc1CN1C(=O)[C@@H]2C(CCC(N)=O)NC3(C(=O)Nc4c3ccc(Cl)c4C)[C@@H]2C1=O (stereo partly specified) | -0.25 | 1.09
CCn1c(=O)c2c(nc(SCC(=O)N3CCCC(C)C3)n2C)n(C)c1=O (stereo unspecified) | -0.11 | 0.6
Cc1ccc(NC(=O)C(=S)NCc2ccco2)cc1 | 2.27 | 0.06
Cc1ccc(C)c(S(=O)(=O)Nc2ccc(C(=O)NCCCN3CCCC3=O)cc2)c1 | -0.03 | 0.65
COc1ccc(C(=O)Nc2cccnc2)cc1C(=O)Nc1cccnc1 | -0.31 | 1.02
Cc1cc(C)c(S(=O)(=O)Nc2ccc(O)cc2)c(C)c1 | 0.75 | 2.76
CN(c1cccc(NC(=O)COc2ccc(Cl)cc2Cl)c1)S(C)(=O)=O | -0.97 | 0.2
Cc1ccccc1C(=O)N1CCN(c2ccc([N+](=O)[O-])c(N3CCOCC3)c2)CC1 | -0.76 | 1.74
CC(Oc1ccccc1)C(=O)Nc1nnc(S(=O)(=O)N2CCCCC2)s1 (stereo unspecified) | -0.44 | 0.39
CCOc1ccc2nc(N3CCC(C(=O)N4CCN(C5CCCCC5)CC4)CC3)sc2c1 | 0.12 | 0.01
Cc1nc(-c2cn[nH]c2-c2ccc(O)cc2O)cs1 | 0.18 | 0.52
O=C1c2ccccc2NC(c2cccc(O)c2)N1O (stereo unspecified) | -0.26 | 0.19
CCN1CCN(S(=O)(=O)c2ccc(Cl)c(C(=O)NC3CCCCC3)c2)CC1 | -0.54 | 0.27
S=C(NCCc1c[nH]c2ccccc12)NC1CCCC1 | -0.51 | 0.82
Cc1ccccc1NC(=O)CN1C(=O)N/C(=C\c2ccccc2OCc2ccc(C(=O)O)cc2)C1=O | -0.3 | 0.01
CCN(CC)c1nc(C)c(C(=S)Nc2cc([N+](=O)[O-])ccc2Cl)s1 | -1.29 | 0.9
Cc1n[nH]c(=S)n1Cc1ccccc1 | 2.73 | 0.88
Cc1ccc([N+](=O)[O-])cc1S(=O)(=O)N1CCCN(C)CC1 | -0.04 | 0.69
O=[N+]([O-])c1ccc(S(=O)(=O)Nc2nnc(C3CCCCC3)s2)cc1 | -1.95 | 0.85
CCN(c1ccccc1)S(=O)(=O)c1ccc(Cl)c(NC(=O)COC(=O)c2cccc(OC)c2O)c1 | -0.08 | 0.92
S=C(NCc1ccc2c(c1)OCO2)NCc1ccc2c(c1)OCO2 | 0.62 | 0.95
CS(=O)(=O)N1CCC(Oc2ccccc2C(=O)NC(C2CC2)C2CC2)CC1 | 1.37 | 0.08
O=C(Nc1cc(S(=O)(=O)N2CCOCC2)ccc1N1CCOCC1)c1cc2c(s1)CCC2 | -0.01 | 0.44
COc1ccc(N(C(C)C(=O)N/N=C/c2cc(Br)c(C)o2)S(C)(=O)=O)cc1 (stereo unspecified) | 0.52 | 0.34
O=C(CN1CCCCCC1)N/N=C/c1ccc(Cl)c(Cl)c1 | 0.35 | 0.21
CCn1ncc(NC(=O)Nc2cccc(C(F)(F)F)c2)c1C(N)=O | 1.01 | 1.48
N#Cc1c(N2CCCC2)nsc1-c1ccccc1 | 0.47 | 0.78
COc1cc(S(=O)(=O)Nc2cccc(C)c2)ccc1NC(=O)c1ccncc1 | 0.52 | 1.69
Cc1ccc2[nH]cc(C(=O)CN3CCN(c4ccccc4F)CC3)c2c1 | 2.34 | 0.45
c1ccc2sc(Sc3ncnc4sccc34)nc2c1 | -0.12 | 0.05
COc1ccc(CCNC(=O)c2cc(CC(C)C)on2)cc1OC | -0.13 | 0.08
O=C(NCc1cccnc1)c1cc2ccccc2oc1=O | 0.41 | 1.29
Cc1ccc(SCCC(=O)OCC(=O)Nc2ncc(Cl)cc2Cl)cc1 | -1.36 | 0.45
Cc1cc(C)c(NC(=O)C2c3ccccc3Oc3ccccc32)c(C)c1 | -0.51 | 1.91
Cc1ccc(S(=O)(=O)NCC(=O)N(CC(=O)NCC2CCCO2)Cc2ccco2)cc1 (stereo unspecified) | -1.28 | 2.91
Cc1ccc(N(C(=O)CNC(=O)c2ccco2)C(C(=O)NC2CCCCC2)c2ccncc2)cc1F (stereo unspecified) | 1.02 | 0.02
CC(Sc1cnc2ccccc2n1)C(=O)O (stereo unspecified) | -0.73 | 0.42
CSc1nnc(-c2ccc([N+](=O)[O-])cc2)o1 | 1.16 | 0.29
Cc1cccc(NC(=O)C(=O)N/N=C/c2ccncc2)c1 | 0.71 | 0.98
Cc1cc(C(=O)N/N=C2\CC(=O)c3ccccc32)c(C)n1-c1ccccc1 | 0.03 | 0.18
CNS(=O)(=O)c1cccc(C(=O)OCC(=O)NC(C)CCc2ccccc2)c1 (stereo unspecified) | -0.58 | 0.68
O=C(N/N=C/c1ccc(Sc2ccccn2)o1)c1cc2ccccc2cc1O | 2.45 | 2.7
NC(=O)C1=C[C@H](c2coc3ccccc3c2=O)C[C@H](OCCCCO)O1 | 0.73 | 0.31
O=C1c2ccccc2C(=O)N1Nc1ccccc1 | 0.06 | 0.62
COC(=O)C1CCN(C(=O)CSc2ccccc2)CC1 | -0.02 | 0.87
CCCCCOc1ccc(C(=O)CCC(=O)Nc2ccc(NC(C)=O)cc2)cc1 | 0.58 | 0.96
Cc1c(/C=N\NC(=O)C2(C)CC2(Cl)Cl)cnn1C (stereo unspecified) | -0.73 | 0.88
CC(C)CC(O)(CC(C)C)C(=O)NNc1ccccc1 | 0.3 | 0.61
CS(=O)(=O)Oc1ccc(/C=N/NC(=O)c2ccncc2)cc1 | 0.11 | 0.59
O=C(COc1ccccc1Cl)Nc1ccccc1C(=O)Nc1cccc(C(=O)O)c1 | -0.28 | 0.13
COc1ccc(N2C(=O)C3CCCN3C2c2cccc(C)c2)cc1Cl (stereo unspecified) | -0.8 | 0.91
C/C(CC(=O)Nc1ccc(Cl)cc1C(F)(F)F)=N\NC(N)=S | -1.85 | 0.17
O=C(NCc1cccnc1)C1CCN(c2ccc(S(=O)(=O)N3CCOCC3)cc2Cl)CC1 | 1.44 | 0.08
C=CCn1c(SCC(N)=O)nnc1-c1cccc(Br)c1 | -0.41 | 0.43
CN(C)Cc1nc2ccccc2c(=O)n1CC(=O)Nc1cccc(S(=O)(=O)N2CCOCC2)c1 | -1.89 | 0.49
COc1cccc(C2CC(=O)Nc3cc4c(cc32)CCC4)c1 (stereo unspecified) | 0.58 | 1.35
CCOC(=O)c1c(C)n(O)c2ccc(Cl)cc2c1=O | 0.48 | 0.49
O=C1CCCc2c1cc(C(=O)NCc1ccco1)c(=O)n2-c1ccccc1 | 2.05 | 0.45
Cc1ccc(S(=O)(=O)Oc2ccccc2/C=N/NC(=O)c2nn(C)cc2[N+](=O)[O-])cc1 | -0.81 | 0.05
COc1ccc(Br)cc1S(=O)(=O)n1nc(C)cc1C | 2.94 | 0.01

Part of the list above, with the structure last:
KCNQ2 enhance baseline	KCNQ2 enhance	structure
-0.73	0.88	Cc1c(/C=N\NC(=O)C2(C)CC2(Cl)Cl)cnn1C (stereo unspecified)
0.3	0.61	CC(C)CC(O)(CC(C)C)C(=O)NNc1ccccc1
0.11	0.59	CS(=O)(=O)Oc1ccc(/C=N/NC(=O)c2ccncc2)cc1
-0.28	0.13	O=C(COc1ccccc1Cl)Nc1ccccc1C(=O)Nc1cccc(C(=O)O)c1

Remaining list, next part
SMILES | KCNQ2 enhance baseline | KCNQ2 enhance
COc1ccc(S(=O)(=O)N(C)Cc2cccs2)cc1Br | -1.84 | 1.47
CN(C)N=Nc1ccc(-c2cn(Cc3ccccc3)cn2)cc1 | -0.44 | 0.48
COc1c(Br)cc2c(C)c(C(=O)O)oc2c1Br | 0.77 | 1.11
NC(=O)C1=C[C@@H](c2ccccc2)C[C@@H](OCCCCO)O1 | -1.24 | 0.13
Cc1nc2ccc(C(=O)OCc3ccccc3Br)cc2nc1C | -0.39 | 0.87
Fc1cccc(/C=N/Nc2ccc3ccccc3n2)c1 | -0.43* | 12.5*
O=C(N/N=C/c1ccc(OCc2ccccc2)cc1)c1cccs1 | -0.39 | 0.03
O=S(=O)(NCC1CCCO1)c1ccc(Oc2ccccc2)cc1 (stereo unspecified) | 0.08 | 1.19
CC(C)Cn1c(-c2ccc(F)cc2)n[nH]c1=S | -0.71 | 0.82
COc1ccc(-c2cc3ccc(OCC(C)=O)cc3oc2=O)cc1 | -0.15 | 2.39
CCOC(=O)c1sc(NC(=O)C2CCC2)cc1C | -4.73 | 0.2
CN1CCN(C(=O)/C(=C/c2cn(C)c3ccccc23)NC(=O)c2ccccc2)CC1 | 0.53 | 0.6
O=[N+]([O-])c1ccccc1/C=N/N1CCN(Cc2ccccc2)CC1 | -1.39 | 1.39
O=C(ON=C1CCN(S(=O)(=O)c2ccccc2)CC1)c1cccc(Cl)c1 | -3.24 | 1.77
CCOC(=O)c1sc(N)c(C#N)c1CSc1nnc(C2CC2)n1N | 0.34 | 1.3
O=S(=O)(c1ccc(Cl)nc1)N1CCN(Cc2ccc3c(c2)OCO3)CC1 | 1.99 | 0.21
Cc1cc(=O)oc2cc(OCC(=O)N3CCN(c4ccc(F)cc4)CC3)c(Cl)cc12 | 0.8 | 0.99
O=C(Nc1ccccc1)NC1(C(=O)N2CCN(C(=O)c3ccco3)CC2)CCCCC1 | -0.05 | 0.02
COc1ccc2cc(C(N)=O)c(=Nc3ccc(C)cc3)oc2c1 | 0.42 | 0.17
OCc1ccccc1N=Cc1cccnc1 | 0.64 | 1.19
O=C(c1cc(-c2ccccc2)on1)N1CCN(c2ccccc2)CC1 | 1.47 | 1.61
O=C1NC(=Nc2ccccc2)/C(=C/c2ccco2)S1 | 2.11 | 0.01
Cc1cccc(-c2c3c(=O)n(C)c(=O)n(C)c3cn2CC2CCCO2)c1 (stereo unspecified) | -0.22 | 0.13
CCOC(=O)C1(C)NC(c2ccc(N(C)C)cc2)C2C(=O)N(c3ccc(OC)cc3)C(=O)C21 (stereo unspecified) | 1.14 | 0.04
O=C(CNC(=O)c1ccccc1F)NCCCN1CCCC1=O | -0.26 | 0.64
N#C/C(=N\Nc1ccc([N+](=O)[O-])cc1)C(=N)N1CCOCC1 | -1.7 | 1.12
COc1cccc(-n2cnc3sc(-c4ccccc4)cc3c2=O)c1 | 0.72 | 0.2
O=C(COc1ccccc1Cl)NCCCNC(=O)c1cccnc1 | 0.45 | 1.52
CCOc1ccc(-c2noc(COC)n2)cc1OC | 1.61 | 0.5
Cn1cnnc1SCC(=O)Nc1ccccc1C(=O)NC1CCCC1 | -1.09 | 1.11
O=C(CC(=O)c1ccccc1)Nc1cccnc1 | -1.73 | 0.69
Cc1cccc(OCCN2C(=O)c3ccccc3C2=O)c1 | 0.13 | 0.06
Cc1onc(-c2ccccc2)c1C(=O)N/N=C/c1ccc(O)c([N+](=O)[O-])c1 | 0.48 | 0.85
CCc1ccc(C(C)NC(=O)Cn2cnc3c(=O)n(C)c(=O)n(C)c32)cc1 (stereo unspecified) | -0.07 | 0.01
CCCC(=O)Nc1ccc(Cl)c(NC(=O)c2cccnc2Cl)c1 | -1.33 | 3.2
COCCC(=O)N1CCC(Oc2ccc(C(=O)NCc3ccon3)cc2)CC1 | -0.62 | 0.18
CC1CCC(NC(=O)CCNS(=O)(=O)c2ccccc2)CC1 (stereo unspecified) | -0.02 | 2.22
O=C(CN1C(=O)c2cccc3cccc1c23)Nc1ccccc1 | 1.65 | 1.85
CCCn1c(C)cc(/C=C(\C#N)C(=O)OCC(=O)Nc2cc(OC)c(OC)c(OC)c2)c1C | 0.25 | 1.1
COc1cccc(CNS(=O)(=O)c2cc3c(cc2C)NC(=O)CO3)c1 | -1.82 | 1.06
Nc1nc(SCC(=O)O)[nH]c(=O)c1NC(=O)c1ccco1 | -3.31 | 0.35
COC(=O)C(CCSC)NC(=O)C12CC3CC(CC(C3)C1)C2 (stereo unspecified) | -0.84 | 1.02
O=C(CCCc1nc2ccccc2s1)NNC(=O)CCN1CCN(Cc2ccccc2)CC1 | -0.19 | 0.49
COc1cc(CNC(=O)C2CC2)ccc1OCc1ccccc1 | -0.01 | 1.28
COc1ccc(/C=C/C(=O)Nc2cccc(C(C)=O)c2)cc1 | -0.03 | 0.61
O=C(NC1CCCC1)c1ccc(Cl)c(S(=O)(=O)N2CCCCC2)c1 | -0.49 | 0.01
CC(=O)NC(Cc1cccc(C)c1)C(=O)NC1CCN(c2ncccc2[N+](=O)[O-])CC1 (stereo unspecified) | 0.36 | 0.14
Cc1ccccc1NS(=O)(=O)c1ccc2[nH]cc(C(=O)N(C)Cc3ccco3)c(=O)c2c1 | 0.06 | 0.48
O=C(COc1ccc(Br)cc1)N1CCNC1=O | 2.17 | 0.78
Cc1cccc(CN(C)CCc2ccccn2)c1 | -0.32 | 1.34
COC(=O)c1ccccc1NC(=O)CSc1nc(N)cc(=O)[nH]1 | 1.05 | 0.04
CC(C)(C)N1C(=O)[C@H]2[C@@H](c3ccc(Br)cc3)N3C(=O)N(c4cccc(F)c4)C(=O)[C@@]3(Cc3ccccc3)[C@H]2C1=O | 1.93 | 0.18
O=C(Nc1nc(-c2cc(F)ccc2F)cs1)c1cccc(N2C(=O)CCC2=O)c1 | 1.13 | 0.55
Cc1ccc(CNC(=O)CCS(=O)(=O)c2cc3c(cc2C)NC(=O)CO3)cc1 | -0.29 | 0.82
c1cncc(Nc2nc(-c3ccncc3)cs2)c1 | 1.25 | 0.05
O=C1c2ccccc2C2(c3ccccc3)NCCN12 (stereo unspecified) | 0.41 | 0.66
COc1ccc(CCNC(=O)COc2cc(O)c3c(c2)OC(C)(C)CC3=O)cc1OC | 1.52 | 1.1
CCc1cccc2c(C=C(C#N)C#N)cn(CC(=O)N3CCCCC3)c12 | 0.07 | 0.04
